PINK1 modulator: PINK1 expression modulation; PINK1 immunofluorescence, high-content cytometry, 24 h; Potency, µM (top dose mostly 76.6 µM), without a hit: top-dose activation (PINK1 increase), actives largely listed as activators; hit rate 0.2% among 410,000; AID 624263; active = well fitted activation curve with a large enough effect; inconclusive = small, poorly fitted or top-dose-only effect; inactive = flat fitted curve, though single readings scatter; cell line not stated here;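 also: potency is read from the fitted curve at half-maximal effect; % of control where 0% means no effect; nearly all actives have a fitted effect of over 65% in size; a mitochondrial uncoupler was the plate control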
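Fluorescence from anti-PINK1 antibody, together with nuclear and cell stains, was scanned on a laser-scanning cytometer. Before staining, stable-line cells were incubated 24 hours with compounds at 5 concentrations; primary antibody 12 h at 10 degrees C.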
Six1-Eya2 inh: Six1/Eya2 interaction inhibition; Q15475+O00167; AlphaScreen GST-Six1/His-Eya2 binding, biochemical; stronger effect = lower value; control for the full effect not named in the record; activity change, % (concentration not given with the values); hit rate 0.56% among 360,000; AID 651725; in the data active = activity change below about -65%; inconclusive = about -30% to -65%; inactive = above about -30%; also: % is scaled to controls: 0 for no effect and ±100 for the full control effect
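Six1/Eya2 binding was read as AlphaScreen signal after compounds were pinned into GST-Six1 plus His-tagged Eya2 (5X stock 250/500 nM) in pH 8.0 Tris/NaCl/TCEP buffer, beads added, then incubated 1 h, 37 C, dark.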
TRPML1 agonist: human mucolipin-1 channel agonism. hit rate 0.12% among 410,000. AID 624414. Q9GZU1. activation, % (concentration not given with the values). TRPML1-expressing cells, Ca2+ dye fluorescence, FDSS; host cell line not named in the record; reference of the full effect not given here; in the data active = activation above about 50%; inconclusive = about 30% to 50%; inactive = below about 30%; also: 0% is about no effect; the text of the record puts the active cut at 80%
Target sequence (Q9GZU1 whole entry, looked up): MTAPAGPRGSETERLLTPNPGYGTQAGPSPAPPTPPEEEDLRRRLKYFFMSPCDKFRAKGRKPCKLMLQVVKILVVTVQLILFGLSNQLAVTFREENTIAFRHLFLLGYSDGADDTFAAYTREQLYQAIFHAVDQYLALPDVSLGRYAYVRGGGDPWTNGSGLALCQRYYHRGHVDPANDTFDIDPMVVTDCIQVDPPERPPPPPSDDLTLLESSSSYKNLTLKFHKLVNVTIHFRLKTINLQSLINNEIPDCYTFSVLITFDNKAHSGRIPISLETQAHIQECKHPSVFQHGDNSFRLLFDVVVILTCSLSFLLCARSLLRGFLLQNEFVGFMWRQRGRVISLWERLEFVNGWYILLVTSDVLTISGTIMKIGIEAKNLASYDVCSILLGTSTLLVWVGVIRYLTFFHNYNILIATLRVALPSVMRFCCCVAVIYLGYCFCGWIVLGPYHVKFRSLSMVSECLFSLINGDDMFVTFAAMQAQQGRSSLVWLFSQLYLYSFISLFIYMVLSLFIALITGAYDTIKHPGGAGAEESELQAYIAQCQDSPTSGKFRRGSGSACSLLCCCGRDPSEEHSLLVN
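Kinetic FDSS Ca2+ read in Tet-induced TRPML1-DL cells (ABD Ca8 dye plus quencher, 45-90 min RT loading): baseline, then compound, then 110 s agonist window; EC80 agonist 54-4 at 4uM final added afterwards for a 110 s antagonist window.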
D2 ag: activates the human D2 dopamine receptor; P14416; DiscoveRx PathHunter D2 beta-arrestin, luminescence, 90 min; 100% = 57 uM dopamine signal; activation, % (no concentration beside the values); hit rate 0.084% among 360,000; AID 624465; in the data active = activation above about 40%; inconclusive = about 15% to 40%; inactive = below about 15%; also: compound concentration not given in the record; the text of the record calls up to 30% inactive
Target sequence (P14416 whole entry, looked up): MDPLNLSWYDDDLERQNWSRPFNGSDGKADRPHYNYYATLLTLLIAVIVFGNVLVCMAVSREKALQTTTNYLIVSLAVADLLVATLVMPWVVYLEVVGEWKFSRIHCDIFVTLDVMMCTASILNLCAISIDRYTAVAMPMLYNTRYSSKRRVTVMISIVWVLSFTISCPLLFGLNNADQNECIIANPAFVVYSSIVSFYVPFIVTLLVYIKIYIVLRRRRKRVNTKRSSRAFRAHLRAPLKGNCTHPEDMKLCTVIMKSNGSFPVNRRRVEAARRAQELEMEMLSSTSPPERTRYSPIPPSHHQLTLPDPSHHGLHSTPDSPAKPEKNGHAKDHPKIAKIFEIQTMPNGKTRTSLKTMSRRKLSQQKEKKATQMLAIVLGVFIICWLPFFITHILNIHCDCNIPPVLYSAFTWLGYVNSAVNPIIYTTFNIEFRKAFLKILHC
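Agonist mode: compounds alone added to overnight-plated D2 PathHunter cells for 90 min at 37 C, with 57 uM final dopamine (EC100) defining full response. Beta-arrestin recruitment detected by chemiluminescent reagent, read after 1 h at ambient temperature.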
TRPML1 blocker: blocks the human TRPML1 channel | TRPML1-inducible cells, Ca2+ dye fluorescence, FDSS; stronger effect = lower value; inhibition of EC80 agonist-evoked calcium signal | activity change, negative = inhibition, % (concentration not given with the values) | hit rate 0.02% among 390,000; in the data active means activity change below about -50%; inconclusive means about -30% to -50%; inactive means above about -30%;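 also: stimulus is agonist 54-4 at its EC80 concentration; % is scaled to controls: 0 for no effect and ±100 for the full control effect; compound concentration not given in the record; the text of the record puts the active cut at -80%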
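TRPML1-DL cells, Tet-induced overnight (~16 h, 37 °C) at 1,500 cells/well, were loaded with Ca8 no-wash dye plus quencher for 45-90 min at room temperature. Compounds were pinned during FDSS kinetic reading; agonist 54-4 at EC80 (4 uM final) then added.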
CtBP-E1A blk: inhibitors of CtBP/E1A interaction | AlphaScreen GST-E1A/His-CtBP binding, 1536-well; stronger effect = lower value; control for the full effect not named in the record | activity change, % (no concentration beside the values) | hit rate 0.49% among 340,000; in the data active means activity change below about -65%; inconclusive means about -30% to -65%; inactive means above about -30%; also: % is scaled to controls: 0 for no effect and ±100 for the full control effect; compound concentration not given in the record
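Homogeneous bead-based format: GST-tagged E1A captured on glutathione donor beads, His-tagged CtBP on nickel acceptor beads; compounds precede bead addition by 2 h at 37 °C.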
The depositor's hits bear a star; ? = inconclusive; . = not tested or not shown; & = joins results of further samples; [ ] = another dose, or the depositor's remark.

mol | PINK1 modulator | D2 ag | Six1-Eya2 inh | CtBP-E1A blk | TRPML1 agonist | TRPML1 blocker
O=C(NCCc1ccccc1)c1ccccc1C(=O)NCCc1ccccc1 | 8.2% | -4.6 | 1 | 0 | 6.3 | 0
O=C(Nc1cccc2cccnc12)c1cccc([N+](=O)[O-])c1 | 4.2% | -1.2 | -17 | -7 | 0.7 | -4
COc1ccc(OC)c(CN(CCCN2CCOCC2)C(=O)Nc2ccccc2)c1 | 14%[38.3 µM] | -2.6 | 6 | 3 | -0.8 | 1
CCOC(=O)C1CCN(C(=O)COc2ccc(Br)cc2)CC1 | -4.7%[38.3 µM] | -0.2 | 2 | 4 | -0.5 | 2
COC(=O)[C@]12CCCCC=C1N(CCC1=CCCCC1)C(=O)[C@H](CC(=O)NCC1CCCCC1)C2 | 14% | . | -2 | -2 | -0.3 | .
CCOC(=O)CN1C(=O)C(=O)N(Cc2c(C)cc(C)cc2C)C1=O | 0.5% | 1.3 | -2 | . | 3.6 | 28
CC(C)(C)c1ccc(C(=O)OCC(=O)Nc2cccc(S(=O)(=O)NC3=NCCC3)c2)cc1 | -0.4% | -3.6 | -4 | -5 | -0.1 | 7
CCCOc1ccc(C2C(=O)N(C3CCCCC3)CC(=O)N2CCC2=CCCCC2)cc1OC (centres undefined) | -0.6% | . | . | . | 0.7 | -8
COc1ccccc1N1CCN(C(=O)CSc2nnc3n2C(C)(C)Cc2ccccc2-3)CC1 | 2.8%[38.3 µM] | 5.7 | 1 | -5 | -0.6 | -4
COc1cccc(NC(=O)N(Cc2c[nH]c3ccccc23)C2CCCCCC2)c1 | 1.0% | . | . | . | 2.0 | -8
Nc1ncc([N+](=O)[O-])cc1S(=O)(=O)c1ccccc1 | -0.3% | -2.0 | 1 | 5 | 3.4 | 2
Cc1ccc2nc(-c3ccncc3)cc(C(=O)NCCc3ccc(F)cc3)c2c1 | ? | -2.1 | -12 | 0 | 0.3 | 14
Cn1c(=O)c2c(nc(CN3CCC(C(N)=O)CC3)n2Cc2ccccc2F)n(C)c1=O | -1.1% | -2.8 | -2 | 5 | 0.0 | 40
O=C(NCCCO)C(=O)NCc1ccncc1 | 2.5% | -4.2 | 0 | 7 | 0.0 | -6
Cc1ccc(Sc2ccc(NC(=O)c3ccc(F)cc3)cc2C#N)cc1 | 11% | 8.6 | 26 | 24 | 1.7 | -9

Overlap with the part before: 5 compounds; new compounds follow.
mol | PINK1 modulator | D2 ag | Six1-Eya2 inh | CtBP-E1A blk | TRPML1 agonist | TRPML1 blocker
Nc1ncc([N+](=O)[O-])cc1S(=O)(=O)c1ccccc1 | -0.3% | -2.0 | 1 | 5 | 3.4 | 2
Cc1ccc2nc(-c3ccncc3)cc(C(=O)NCCc3ccc(F)cc3)c2c1 | ? | -2.1 | -12 | 0 | 0.3 | 14
Cn1c(=O)c2c(nc(CN3CCC(C(N)=O)CC3)n2Cc2ccccc2F)n(C)c1=O | -1.1% | -2.8 | -2 | 5 | 0.0 | 40
O=C(NCCCO)C(=O)NCc1ccncc1 | 2.5% | -4.2 | 0 | 7 | 0.0 | -6
Cc1ccc(Sc2ccc(NC(=O)c3ccc(F)cc3)cc2C#N)cc1 | 11% | 8.6 | 26 | 24 | 1.7 | -9
CC(=O)c1ccc(N2CCN(CC(=O)NCc3ccccc3)CC2)cc1 | 0.5% | -4.3 | 1 | . | 0.5 | -9
Cc1ccc(NC(=O)CCn2cccc2)cc1C | 0.8% | -2.0 | -10 | -11 | -0.5 | -3
COc1cccc(C(=O)Nc2cc(NC(=O)c3ccco3)ccc2OC)c1 | -4.7% | 0.2 | -2 | 0 | 0.4 | 14
Cc1ccc(Sc2c([N+](=O)[O-])ncn2C)cc1 | 3.1% | -3.1 | -5 | -13 | 0.6 | 8
O=C(CSc1nc2[nH]c(=O)cc(O)c2s1)Nc1nccs1 | -2.3% | -1.4 | -7 | 12 | -0.5 | -2
O=C(O)C1C2CCC1C(O)C2 (centres undefined) | -0.4% | -3.9 | 32 | -1 | -0.4 | 4
S=C(NCc1ccccc1)N1CCN(c2ccccc2)CC1 | 0.5% | -0.2 | -1 | -2 | -0.5 | -1
CCOc1ccc(CNC(=O)NS(=O)(=O)c2ccc(OC)cc2)cc1 | -5.3%[38.3 µM] | -1.5 | 4 | -4 | -0.5 | -1
Cc1ccc(CNC(=O)c2ccc(N(C)S(=O)(=O)c3ccccc3)cc2)cc1 | -0.3% | -0.5 | -6 | -8 | 2.4 | 7
Cc1cc2oc(=O)cc(CN3CCN(c4ccc(Cl)c(Cl)c4)CC3)c2cc1Cl | -0.5% | -2.7 | 14 | -18 | 0.5 | .
CCOC(=O)C1CCN(c2c(N(C)Cc3ccco3)c(=O)c2=O)CC1 | -0.5% | -4.2 | 6 | -12 | -0.4 | 0
CN(Cc1cnccn1)Cc1cn(Cc2ccccc2)nc1-c1ccc2c(c1)OCO2 | 0.7% | -14 | 10 | 0 | -0.7 | -1
CN(C)S(=O)(=O)Oc1ccsc1C(=O)Nc1ccc(C(F)(F)F)cc1 | 2.2% | 4.9 | 2 | 0 | 1.7 | 4
CC(=O)Oc1ccc(N(C(C)=O)S(=O)(=O)c2cccs2)cc1 | 2.2%[38.3 µM] | 0.4 | -1 | 11 | -0.9 | 39
C[C@H]1CN(c2ccc(Br)cc2)C(=O)[C@@H]1CC(=O)Nc1ccc(Br)cc1 | -0.6% | -3.3 | 8 | 4 | -0.6 | 12
Cc1ccc(OCCC(=O)NNC(=O)c2ccc(Br)cc2)cc1 | -0.8% | 0.5 | 3 | 4 | -0.6 | -3
CCOc1ccc(NC(=O)CN(C)C(=O)CCNC(=O)c2ccc(Br)cc2)cc1OCC | 2.0% | -5.9 | -16 | -3 | -1.0 | -10
Cc1nc2sc(C(c3cccc(F)c3)N3CCC(C)CC3)c(O)n2n1 (centres undefined) | 7.7% | -0.4 | -8 | -13 | 1.5 | -13
O=C(NC1CCCC1)c1cnn2c(C(F)(F)F)cc(-c3ccco3)nc12 | 0.6%[38.3 µM] | -4.0 | -8 | -20 | 0.1 | -11
NC(=O)c1c(NC(=O)c2ccccc2Cl)sc2c1CCC2 | -0.7% | -4.3 | -1 | . | 0.1 | -6
O=C(Nc1ccc(F)cc1)Nc1cc(OCC(F)(F)F)cc(OCC(F)(F)F)c1 | ? | 1.6 | 0 | 11 | 1.8 | -17
CCC(C(=O)NC1CCCCC1)n1c(SCc2cccc(C)c2)nc2ccncc21 (centres undefined) | 2.0%&2.0% | -6.4 | -1 | 0 | -1.3&-0.3 | 0&3
CC(NCc1ccccc1)c1ccccc1O (centres undefined) | -1.3% | -3.2 | 4 | -13 | 2.6 | 0
CCOC(=O)c1c(C)[nH]c(C)c1S(=O)(=O)N(C)CC(=O)N1CCN(c2ccccc2OC)CC1 | -0.9% | . | . | . | 0.3 | -9
CCC(Cc1ccccc1)NC(=O)C1CCN(S(=O)(=O)c2c(C)noc2C)CC1 (centres undefined) | 5.8%[38.3 µM] | 0.3 | 1 | 6 | 0.1 | -1
CC1(C)CC(=O)c2cc(OCC(=O)NCCN3CCOCC3)ccc2O1 | -0.1% | -2.0 | 9 | 12 | -0.1 | 1
COc1ccc(N=C2SC(CC(=O)Nc3ccccc3)C(=O)N2CCc2ccccn2)cc1 (centres undefined) | 1.4% | -3.8 | -4 | -4 | -0.1 | 11
O=C1c2ccccc2C(Nc2cccnc2)N1Cc1ccccc1Cl (centres undefined) | 1.8% | -0.4 | -3 | -7 | 0.7 | 5
Cc1ccc2oc(=O)n(CCCOc3ccccc3Cl)c2c1 | -1.5% | . | . | . | 2.7 | -5
Cc1ccc(N(CC(O)Cn2c3ccccc3c3ccccc32)S(C)(=O)=O)cc1 (centres undefined) | -2.3%[38.3 µM] | 2.4 | 0 | 4 | 0.4 | 9
O=C(COC(=O)CNC(=O)c1cccc([N+](=O)[O-])c1)Nc1cccc(S(=O)(=O)N2CCCCC2)c1 | 2.1% | 0.8 | -14 | -19 | 1.9 | 19
CCOC(=O)c1sc(NC(=S)NC(=O)c2ccco2)nc1C | 0.4% | -6.3 | 13 | -7 | 0.7 | 9
O=C(NCCN1CCN(c2ccccc2F)CC1)C1CCCN(S(=O)(=O)c2cnc[nH]2)C1 (centres undefined) | 0.8% | 15 | -3 | 1 | 0.0 | -7
COc1ccccc1N1CCN(CCNC(=O)Nc2cccc(C)c2C)CC1 | -0.9% | 4.2 | -10 | -1 | 1.2 | -5
O=C1/C(=C/c2ccco2)SC(=S)N1C1CCS(=O)(=O)C1 (centres undefined) | 1.5% | -4.3 | -13 | . | 2.8 | -26
CCCS(=O)(=O)c1ccc(COC(=O)Cc2ccc([N+](=O)[O-])cc2)cc1 | -1.2% | 3.3 | -13 | . | -1.0 | 1
CCOc1ccccc1NCc1cc(=O)oc2cc(C)ccc12 | -0.1% | -2.8 | -2 | -7 | 2.8 | -12
COc1ccc(C2CC(c3ccccc3)=NN2C(=O)COC(=O)COc2ccccc2)cc1 (centres undefined) | 0.8% | 2.1 | -2 | -4 | 2.8 | 37
Cc1ccc(-n2ncc3c(=O)n(Cc4cccc(C(F)(F)F)c4)cnc32)cc1C | -1.3% | . | . | . | 2.2 | 1
CCCOc1ccc(C(=O)c2ccccc2C(=O)OC2CCOC2=O)cc1OCCC (centres undefined) | -2.3% | -0.4 | -3 | -3 | 1.4 | 13
COc1ccc(-c2cc3nc(CCl)[nH]c(=O)c3s2)cc1 | -0.9% | -3.7 | -17 | -1 | -0.4 | -15
NC(Cc1ccc(C(F)(F)F)cc1)c1csc(NC(=O)NCCc2ccccc2)n1 (centres undefined) | -1.4% | 12 | -6 | -5 | 3.2 | -18
OCC(C#CCN1CCCCC1)NCc1ccccc1 (centres undefined) | 0.2%[38.3 µM] | -1.4 | -3 | 2 | -0.5 | 4
O=C(CCc1nnc(COc2ccccc2)o1)NC1(c2ccccc2)CC1 | 2.0% | -2.4 | 6 | 1 | 0.0 | -13
CCc1ccc(NCc2cc3ccc(OC)cc3n(CC(=O)Nc3ccc(C(C)C)cc3)c2=O)cc1 | 3.8% | . | . | . | 1.1 | 27
CC1CCC(NC(=O)C2CC(=O)N(c3ccc(Cl)cc3)C2)CC1 (centres undefined) | 1.7% | 5.4 | 4 | 5 | 0.1 | -12
Cc1cc(C)cc(N(CCC#N)C(=O)CSC2=Nc3ccccc3C3CC=NN23)c1 (centres undefined) | 0.4% | -2.1 | -4 | -3 | 2.6 | -3
CSc1nc(C)cc(-n2ccc(=O)[nH]c2=O)n1 | ? | -2.5 | 2 | 7 | 2.3 | -3
